High-throughput results from PubChem.
RE007 growth inh: less growth of the S. pombe RE007 Vpr strain; AID 651644; Potency, µM (doses to about 92.2 µM), inactives show at the top dose activity change, negative = less growth; hit rate 0.21% among 360,000; S. pombe RE007 Vpr strain, BacTiter-Glo ATP luminescence, 24 h; control for the full effect not named in the record; active = well fitted falling curve with a large enough effect; inconclusive = small, poorly fitted or top-dose-only effect; inactive = no such curve, though single readings can be large or run the other way;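 further: on the % scale 0 is the no-effect control and ±100 the full control effect; nearly all actives have a fitted effect of over 50% in size; the assay follows cell death caused by Vpr and the record does not say whether a fall means rescue or toxicity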
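Fission yeast RE007 carrying one integrated HIV-1 vpr copy, seeded at OD 0.01 in PMG+AL medium with 23 nL pinned compound. Grown 24 h at 30 degrees; viability read by BacTiter-Glo luminescence after 5 min.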
Cruzain inh noDet: blocks cruzain activity in detergent-free assay. hit rate 2.3% among 200,000. Potency, µM, for inactives: max response, negative = inhibition, hits mostly inhibitors. purified cruzain, Z-FR-AMC fluorescence, no detergent. P25779; active means well fitted curve in the direction sought with a large enough effect; inconclusive means small, poorly fitted or top-dose-only effect, or another doubt; inactive means no such curve, though single readings can be large; an effect the other way counts as inactive or inconclusive;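 further: plate controls were enzyme without inhibitor for no effect and buffer without enzyme for full effect; nearly all actives have a fitted effect of over 40% in size; top concentration of the series not given in the record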
Target sequence (P25779 123-467 limits assumed): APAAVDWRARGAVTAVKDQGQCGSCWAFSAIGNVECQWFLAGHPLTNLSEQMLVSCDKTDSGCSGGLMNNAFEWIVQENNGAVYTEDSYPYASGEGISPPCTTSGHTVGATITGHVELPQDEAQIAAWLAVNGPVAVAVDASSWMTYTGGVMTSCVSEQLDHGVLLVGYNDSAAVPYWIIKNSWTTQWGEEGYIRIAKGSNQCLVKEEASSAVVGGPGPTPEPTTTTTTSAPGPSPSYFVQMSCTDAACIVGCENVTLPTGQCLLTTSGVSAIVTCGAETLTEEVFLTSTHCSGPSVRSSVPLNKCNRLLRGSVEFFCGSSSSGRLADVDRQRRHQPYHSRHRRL
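Purified cruzain at 1.5 nM, pre-incubated 15 min with compound at room temperature in 100 mM sodium acetate pH 5.5, 5 mM DTT, 0.00005% Triton X-100. Reaction started with 2 uM Z-FR-AMC; AMC fluorescence increase over 60 s gives rate.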
NS1 inh: influenza NS1 inhibition. S. cerevisiae slowed by influenza A NS1, growth recovery by OD600. Potency, µM (highest dose often 46.1 µM), for the others: at the top dose activity, positive = more growth. hit rate 0.4% among 270,000; further: actives are rising curves; nearly all actives have a fitted effect of over 50% in size
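A cell-based growth assay was used: compounds that relieve NS1-induced slow growth of budding yeast raise OD600. Assay medium was yeast nitrogen base with ammonium sulphate and -URA supplement, pH 6.0, with 2% galactose.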
StopGo reporter: lowers the luciferase signal of an FMDV 2A StopGo reporter; human cells with a luciferase reporter of 2A StopGo recoding; control for the full effect not named in the record; Potency, µM (doses to about 57.9 µM), for inactives: at the highest dose signal change, negative = less light; hit rate 1.2% among 410,000; AID 1159524; active = well fitted falling curve with a large enough effect; inconclusive = small, poorly fitted or top-dose-only effect; inactive = no such curve, though single readings can be large or run the other way; tested in HEK293T cells; further: on the % scale 0 is the no-effect control and ±100 the full control effect; nearly all actives have a fitted effect of over 45% in size; luciferase light after 4 h
LASV entry inh: blocks Lassa virus binding to or entry into cells. Potency, µM (series often up to 37.9 µM), inactives show top-dose activity change, negative = inhibition, most hits filed as inhibitors. Lassa virus pseudotype entry inhibition, cell reporter; control for the full effect not named in the record. hit rate 1.2% among 300,000; active means well fitted inhibition curve with a large enough effect; inconclusive means small, poorly fitted or top-dose-only effect, or effect the other way; inactive means flat fitted curve, though single readings scatter; tested in HEK293 cells; further: on the % scale 0 is the no-effect control and ±100 the full control effect; nearly all actives have a fitted effect of over 50% in size; luciferase read-out
SARS PLP yeast: blocks SARS-CoV papain-like protease in a yeast assay; S. cerevisiae expressing SARS-CoV PLpro, growth rescue; control for the full effect not named in the record; Potency, µM (highest dose often 32.9 µM), for inactives: at the highest dose activity, positive = growth rescue; hit rate 0.19% among 330,000; AID 485353; further: 0% is about no effect; nearly all actives have a fitted effect of over 55% in size; growth read by luminescence after 48 h
Marburg entry inh: Marburg virus entry inhibition. Marburg virus pseudotyped entry inhibition, cell reporter; control for the full effect not named in the record; about a third of the inactives were read at about 46 µM. Potency, µM (series often up to 37.8 µM), for the others: top-dose activity change, negative = inhibition, hits mostly inhibitors. hit rate 1.8% among 300,000. AID 540276; active = well fitted inhibition curve with a large enough effect; inconclusive = small, poorly fitted or top-dose-only effect, or effect the other way; inactive = flat fitted curve, though single readings scatter; tested in HEK293 cells; about a fifth of its hits are not listed in these tables; further: on the % scale 0 is the no-effect control and ±100 the full control effect; luciferase read-out
Cruzain Triton: inhibitors of Trypanosoma cruzi cruzain with detergent | P25779 | purified cruzain, Z-FR-AMC fluorescence, 0.01% Triton | Potency, µM, inactives show max response, negative = inhibition, most hits filed as inhibitors | hit rate 0.43% among 200,000 | AID 1478; active means well fitted curve in the direction sought with a large enough effect; inconclusive means small, poorly fitted or top-dose-only effect, or another doubt; inactive means no such curve, though single readings can be large; an effect the other way counts as inactive or inconclusive;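 further: plate controls were neutral wells for no effect and buffer without enzyme for full effect; nearly all actives have a fitted effect of over 40% in size; top concentration of the series not given in the record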
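Purified cruzain (1.5 nM final) was preincubated with compounds for 15 min at room temperature in 100 mM sodium acetate pH 5.5, 5 mM DTT, 0.01% Triton X-100. Reaction started with 2 uM Z-FR-AMC; AMC fluorescence change over 60 s gave activity.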
Numbers without * were called inactive; ? = inconclusive; nt = not tested or not shown; & = joins results of further samples; ! = not confirmed by another sample; [ ] = another dose, or the depositor's remark. Unless noted, the call rests on the fitted dose curve; in most records, active means well fitted rising curve with a large enough effect; inconclusive means small, poorly fitted or top-dose-only effect; inactive means no such curve, though single readings can be large or run the other way. Potency means the concentration at half of the fitted maximal effect.

Order of values – RE007 growth inh, Cruzain inh noDet, NS1 inh, StopGo reporter, LASV entry inh, SARS PLP yeast, Marburg entry inh, Cruzain Triton
COc1ccc(N(CC(=O)N2CCN(Cc3ccc4c(c3)OCO4)CC2)S(=O)(=O)c2ccc(F)cc2)cc1
    10%, nt, -9%, -28%, nt, 0%, nt, nt
Cc1cc(C)n(/N=C/c2cc(Cl)cc(Cl)c2O)c(=O)c1
    ?, nt, -5%, -9%, -36%[46.1 µM], 0%, -22%[46.1 µM], nt
Cc1ccc(C)c(N2N=C(C(=O)OCc3nnc(-c4cccs4)o3)CCC2=O)c1
    -12%, nt, nt, -5%, 18%, 1%, 17%, nt
COc1cc2c3c(c1)C1(C(=O)N3C(C)(C)C=C2C)C(C#N)=C(N)Oc2cc(O)ccc21 (configuration not stated)
    11%, 17%, -15%, ?, -9%, nt, 1%, -6.7%
CCc1ccccc1-n1c(SCC(=O)N2CCCC2)nnc1-c1ccccn1
    11%, 6%, -2%, -15%, ?, 4%, 5%, 1.9%
COc1ccc2[nH]c(C(=O)O)c(CCNC(C)=O)c2c1
    3%, -6%, 7%, -2%, 10%, 1%, 8%, 6.9%
CC(C)C(NC(=O)c1ccc(C(C)(C)C)cc1)C(=O)NCC(c1ccccc1)N(C)C (configuration not stated)
    -1%, nt, -3%, -13%, nt, 0%, nt, nt
COc1ccc(NC(=O)CSc2c3c(nc4ccccc24)CCC3)c(OC)c1
    9%, -5%&-13%, 3%, ?, -15%[46.1 µM], -20%, 2.2µM*, -7.7%&-4.4%
O=C(Cn1nnc(-c2ccc(Cl)cc2)n1)NCc1ccco1
    5%, nt, 8%, 25%, nt, -1%, nt, nt
Cc1ccc(C)c(NC(=O)CCc2nnc3ccc(N4CCCC4)nn23)c1
    -1%, nt, 19%, -7%, nt, 3%, nt, nt
COc1cccc(OC)c1OCCNCC1COc2ccccc2O1 (configuration not stated)
    -10%, 11%&-5%, -6%, -28%&-3%&1%, -6%, nt, 13µM*!, 2.5%&6.4%
CC(=O)Oc1cccc(N2C(=O)c3ccc(C(=O)Nc4c[nH]c(=O)[nH]c4=O)cc3C2=O)c1
    -1%, nt, 8%, ?, 19%[46.1 µM], 0%, 24%[46.1 µM], nt
C=CCc1ccccc1OCCSc1nc(-c2ccccc2F)nc2cc(=O)[nH]n12
    nt, ?, nt, -26%, 14%[46.1 µM], nt, nt, 2.1%
CCc1nnc(NC(=O)CSc2nnc(Cc3ccccc3)n2-c2ccc(OC)cc2)s1
    4%, -3%, -4%, 20%, 8%, 8%, -31%&-31%, -4.7%
CCn1cc(Br)c(C(=O)Nc2nccs2)n1
    5%, nt, 2%, 18%, 15%, -1%, 15%, nt

Structures above that contain a Cl atom, in the order listed:
Order of values – RE007 growth inh, Cruzain inh noDet, NS1 inh, StopGo reporter, LASV entry inh, SARS PLP yeast, Marburg entry inh, Cruzain Triton
Cc1cc(C)n(/N=C/c2cc(Cl)cc(Cl)c2O)c(=O)c1
    ?, nt, -5%, -9%, -36%[46.1 µM], 0%, -22%[46.1 µM], nt
O=C(Cn1nnc(-c2ccc(Cl)cc2)n1)NCc1ccco1
    5%, nt, 8%, 25%, nt, -1%, nt, nt

Other entries
Order of values – RE007 growth inh, Cruzain inh noDet, NS1 inh, StopGo reporter, LASV entry inh, SARS PLP yeast, Marburg entry inh, Cruzain Triton
CCOc1ccc(Nc2c(S(=O)(=O)c3ccccc3)cnc3ccccc23)cc1
    nt, 2%, nt, ?, nt, nt, -27%[46.1 µM], -4.4%
CN(Cc1nc2ccccc2c(=O)[nH]1)C(=O)c1cc2c(s1)CCCCC2
    -7%, nt, nt, -16%, -4%[46.1 µM], -1%, 8%[46.1 µM], nt
Cc1cccc(NC(=O)c2cnc3sccn3c2=O)c1
    -5%, nt, -32%, 13%, nt, -1%, nt, nt
CC(NC(=O)CN1CCOCC1)c1ccc(F)cc1 (configuration not stated)
    4%, nt, 4%, 1%, nt, 0%, nt, nt
COc1ccc(-c2nc(CS(=O)CC(=O)NCCc3ccc(Cl)cc3)c(C)o2)cc1OC (configuration not stated)
    nt, ?, nt, -13%, -9%[46.1 µM], nt, 1%[46.1 µM], -6.4%
CCCCCNC(=O)c1cccc(S(=O)(=O)N2CC3(C)CC2CC(C)(C)C3)c1 (configuration not stated)
    9%, nt, nt, 8%, 13µM*, -1%, ?, nt
CCOC(=O)c1cc(=O)cc(C(=O)OCC)o1
    15%, -3%, ?, -1%, ?, 3%, 7%[46.1 µM], 2.3%
Cc1ccc(CN(Cc2ccco2)C(=O)COc2ccc(Cl)cc2)o1
    nt, -5%, nt, -10%, 2%[46.1 µM], nt, 10%[46.1 µM], -6.1%
COc1ccc(NC(=O)c2sc3nc4c(cc3c2N)CCCCCC4)c(OC)c1
    nt, -1%, nt, -19%, 5%[46.1 µM], nt, 4%[46.1 µM], -6.6%
Cc1cc(NC(=O)CSc2ccc(Cl)cc2)no1
    6%, 4%, ?, 3%, 1%, -6%, ?, -0.6%
CC1CCN(c2ccc(-c3ccc(NC(=O)c4ccco4)cc3)nn2)CC1
    -16%, nt, nt, 2%, 14%, 2%, ?, nt
O=C(O)CCC(=O)Nc1ccc(S(=O)(=O)c2ccc(NC(=O)CCC(=O)O)cc2)cc1
    7%, nt, -12%, -18%, nt, 1%, nt, nt
CSCc1c(C(=O)N2CCCc3ccccc32)oc2ccccc12
    15%, nt, nt, 0%, 1%, -16%, -27%, nt
CCCCSCCCNC(=O)C1CCC(CNS(=O)(=O)c2ccccc2)CC1 (configuration not stated)
    0%, -1%, 4%, ?, -23%&22%[46.1 µM], 0%, ?, 0.1%
CCN(CC)C(=O)C1CCCN(C(=O)Nc2ccc3nsnc3c2)C1 (configuration not stated)
    8%, -22%, -8%, 3%, 8%, 3%, 6%, -1.8%

Profiles from above. Screens in order: RE007 growth inh	Cruzain inh noDet	NS1 inh	StopGo reporter	LASV entry inh	SARS PLP yeast	Marburg entry inh	Cruzain Triton
Listed for Cc1ccc(C)c(NC(=O)CCc2nnc3ccc(N4CCCC4)nn23)c1 → -1%	nt	19%	-7%	nt	3%	nt	nt
Listed for CCOC(=O)c1cc(=O)cc(C(=O)OCC)o1 → 15%	-3%	?	-1%	?	3%	7%[46.1 µM]	2.3%
Listed for CC1CCN(c2ccc(-c3ccc(NC(=O)c4ccco4)cc3)nn2)CC1 → -16%	nt	nt	2%	14%	2%	?	nt
Listed for C=CCc1ccccc1OCCSc1nc(-c2ccccc2F)nc2cc(=O)[nH]n12 → nt	?	nt	-26%	14%[46.1 µM]	nt	nt	2.1%

Continuation.
Order of values – RE007 growth inh, Cruzain inh noDet, NS1 inh, StopGo reporter, LASV entry inh, SARS PLP yeast, Marburg entry inh, Cruzain Triton
Nc1n[nH]c(N)c1N=Nc1cccc(C(F)(F)F)c1
    -6%, nt, -1%, 26%, nt, 1%, nt, nt
CCc1cc(C(=O)N/N=C/c2c(C)[nH]c3ccccc23)cs1
    4%, 14%, -26%, 4%, 12%, -5%, ?, -14%
CCOC(=O)c1ccccc1NC(=O)C=C(C)C
    -1%, -3%, -10%, 11%, 7%, 30%, ?, -1.7%
CCOC(=O)C(=O)c1csc(NC(=O)COc2ccc(N(C)S(=O)(=O)c3ccc(F)cc3)cc2)n1
    -7%, -4%, 6%, 0%, -4%, 2%, -4%, -3.4%
O=C1CCCc2cc(S(=O)(=O)N3CCCC(C(=O)Nc4ccc(F)c(Cl)c4)C3)ccc2N1 (configuration not stated)
    nt, ?, nt, 32µM*, -27%[46.1 µM], nt, nt, -9.6%
O=C(CCCn1c(=S)[nH]c2ccccc2c1=O)N1CCOCC1
    6%, -5%, 3%, 11%, 1%, 2%, 26%, 1.8%
CC(C)(O)C#Cc1ccc(CN2CCCC(CO)(Cc3cccc(Cl)c3)C2)cc1 (configuration not stated)
    -12%, nt, -1%, -22%, ?, 1%, ?, nt
Cc1ccc(NC(=O)COC(=O)COc2ccc3ccc(=O)oc3c2)cc1[N+](=O)[O-]
    17%, nt, nt, -6%, 8%, -5%, ?, nt
CCNC(=O)NC1c2ccccc2CSc2ccccc21 (configuration not stated)
    1%, nt, nt, -23%, -22%[46.1 µM], nt, ?, nt
Cc1ccc(-n2cc(S(=O)(=O)c3ccc(C)cc3)[nH]c2=O)cc1
    -21%, nt, nt, 26%, 5%, -2%, 0%[46.1 µM], nt
Cc1cccc(CCn2c(=O)c3ccccc3n(Cc3ccccc3C)c2=O)c1
    nt, 2%, nt, ?, ?, nt, 7%[46.1 µM], -0.8%
CCN(CC)C(=O)CSc1nc(Cc2ccccc2)nc2ccccc12
    3%, nt, 0%, -18%, nt, 3%, nt, nt
O=C(O)c1ccc(Nc2ncnc3scc(-c4ccccc4)c23)cc1
    6%, -4%, 1%, ?, -6%&-2%[46.1 µM], 2%, 2%&2%[46.1 µM], -0.4%
Cc1cc(C)cc(OCC(=O)OCC(=O)c2cc(C)n(C3CC3)c2C)c1
    2%, nt, -4%, -7%, -4%, -5%, ?, nt
CCOc1ccccc1NC(=O)Cn1nc(-c2ccco2)ccc1=O
    19%, nt, 3%, 8%, -1%, -1%, -14%[46.1 µM], nt
CC1CN(C(=S)Nc2ccc(S(N)(=O)=O)cc2)CC(C)O1 (configuration not stated)
    13%, nt, -1%, -18%, nt, -1%, nt, nt
CCC1(C)N([O-])C(C)=C(c2ccccc2)[N+]1=O (configuration not stated)
    3%, -4%, -2%, -18%, 2%, -6%, 14%[46.1 µM], -0.3%
CCN(CC)CCn1c(SCC(=O)NCCC2=CCCCC2)nc2c(sc3ccccc32)c1=O
    13%, nt, nt, -8%, 8%[46.1 µM], -1%, ?, nt
Cc1c(C)c2c(OCC(=O)O)cc3c(c2oc1=O)CCC(C)(C)O3
    -4%, nt, 4%, -15%, nt, -2%, nt, nt
